# Vif A3G: HIV-1 Vif–A3G interaction blockers – biochemical, TR-FRET, GST-Vif 1-94, biotin-A3G peptide, dose response retest, primary screen (AID 1117319); TR-FRET GST-Vif / biotin-A3G peptide binding; higher % means a stronger effect; test concentration not given here; strong numbers were not always called active; one-dose inhibition, %; IC50 in µM for titrated hits; hit rate 0.57% among 260,000;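 active = above the screen mean plus three standard deviations and confirmed in dose response; inconclusive = results disagree or hit not tested in dose response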;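 note: Vif residues 1-94 fused to GST binding biotinylated APOBEC3G peptide 110-148; 0% = full assay without inhibitor and 100% = GST in place of GST-Vif; retest series ran down from 100 µM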
# rRNA inh HTS: inhibits bacterial ribosomal RNA function over humanized ribosomes; E. coli WT GFP vs humanized-ribosome RFP mutants, fluorescence, 24 h; hits give low values; DMSO median 0, no signal -100; GFP signal change (wild-type ribosome), % (test concentration not listed); hit rate 1.6% among 350,000; AID 720706;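 active = significant combined selectivity score with lowered wild-type GFP, culture density cut under 30%, mutant RFP and density less affected; inactive = any of these conditions unmet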; note: one replicate is shown; some compounds called inactive have numbers as strong as hits
# Bfl-1 A1 inh: inhibitors of the anti-apoptotic protein A1, read as caspase activation; MEF A1-2A-BIM cells, Caspase-Glo 3/7 luminescence, 3 h; percent of clofoctol response, vehicle zero; caspase activation, % (test concentration not listed); hit rate 0.066% among 330,000;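 active = over half of replicate activation scores above 10%, or exactly half above 10 with the replicate mean above 10; inconclusive = replicate mean below 10 yet half the replicates above 10; inactive = over half of replicates below 10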;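 note: wells of about 30 µL received 50 nL stock; many hits fall short of the cut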
# AF4-AF9 inh: MLL-AF4/AF9 protein interaction inhibition | P42568 | AlphaScreen, biotin-AF4 peptide binding to FLAG-AF9 | inhibition, % at 10 µM | hit rate 0.47% among 350,000 | AID 651704;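 active = every replicate reaching a set inhibition limit, whatever the replicate mean, cut at about 25% in these data; inconclusive = mean inhibition reaches that limit but some replicates miss it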;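 note: 0% = plate neutral control median and 100% = total signal loss; the record names both 10 and 1 µM as test concentration; the first replicate is given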
# Target sequence (P42568 whole entry, looked up): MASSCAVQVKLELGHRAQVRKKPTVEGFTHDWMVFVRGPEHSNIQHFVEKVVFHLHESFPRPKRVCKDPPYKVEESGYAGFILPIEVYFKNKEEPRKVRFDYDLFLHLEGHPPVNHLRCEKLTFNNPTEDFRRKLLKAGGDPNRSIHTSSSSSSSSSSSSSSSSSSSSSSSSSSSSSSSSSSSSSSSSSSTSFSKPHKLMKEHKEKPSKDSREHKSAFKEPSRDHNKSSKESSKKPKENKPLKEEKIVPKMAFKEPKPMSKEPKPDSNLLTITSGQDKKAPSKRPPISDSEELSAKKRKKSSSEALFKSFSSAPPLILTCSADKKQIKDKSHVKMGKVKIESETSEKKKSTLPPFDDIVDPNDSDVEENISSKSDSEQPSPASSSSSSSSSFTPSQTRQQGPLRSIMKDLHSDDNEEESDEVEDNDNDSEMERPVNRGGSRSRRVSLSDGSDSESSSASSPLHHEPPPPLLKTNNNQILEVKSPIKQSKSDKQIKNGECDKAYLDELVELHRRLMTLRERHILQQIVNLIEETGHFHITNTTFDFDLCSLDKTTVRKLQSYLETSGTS
# RanGTP-Imp inh: disruptors of Ran-importin-beta complex formation – biochemical, FRET, CFP-Ran, YFP-importin-beta, homogeneous, primary screen. cell-free CFP-Ran/YFP-importin-beta FRET ratio. inhibition, % (concentration not given with the values). hit rate 1.1% among 300,000;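 active = most replicates above 15%; inconclusive = exactly half above 15%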;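 note: 0% = DMSO wells and 100% = Ran loaded with GDP instead of GTP; wells of about 40 µL received 100 nL stock; the first replicate is given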
# T cruzi inh: blocks replication of Trypanosoma cruzi. hit rate 1.4% among 300,000. AID 1885. T. cruzi beta-gal in NIH3T3, luminescence, 90 h. inhibition, % (no concentration beside the values);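 active = mean inhibition across valid replicates above about 55%, limit read from the data; inconclusive = mean below that limit but half or more replicates reach it; inactive = mean below it, under half of replicates reach it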;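 note: signal also drops with host cell toxicity which is not excluded here; 0% = plate median of DMSO wells and 100% = zero luminescence signal; higher percent means less beta-gal luminescence so fewer parasites; stock transfer was 50 nL into about 50 µL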
# Beta cell apopt: blocks beta cell apoptosis; INS-1E cytokine-induced death, ATP luminescence, 48 h; percent of positive-control rescue, neutral wells zero; protection from apoptosis, % (test concentration not listed); hit rate 0.8% among 300,000; AID 435005;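 active = all replicates at 75% or more, or half of them and the mean; inconclusive = half reach 75% but not the mean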;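 note: 0% = cytokine-treated negative control wells and 100% = positive control rescue; higher means more ATP so stronger rescue from cytokine killing; wells of about 40 µL received 100 nL stock; the first replicate is given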
# Calb FLC: affects C. albicans growth with fluconazole. hit rate 0.57% among 300,000. growth inhibition, % (no concentration beside the values). C. albicans CaCi-2 (fluconazole-resistant clinical isolate) + fluconazole, Alamar Blue growth, 48 h. AID 1979;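 active = most replicates above 75%; inconclusive = exactly half above 75%; inactive = most below 75%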;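 note: all wells also contain fluconazole at 8 µg/ml as a sub-toxic cotreatment; 0% = median of DMSO wells and 100% = median of geldanamycin control wells; wells of about 8 µL received 7.5 nL stock; the first replicate is given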
# rRNA inh HTS OD600: second read-out of rRNA inh HTS, no call of its own (marks repeat the call); OD600 change, %; measured here: OD600 growth;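 optical density of the mix in the first replicate; 0 = DMSO median and -100 = no signal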
# rRNA inh HTS RFP: second read-out of rRNA inh HTS, no call of its own (marks repeat the call); RFP signal change, %; measured here: RFP humanized mutant strains;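 first replicate; 0 = DMSO median and -100 = no signal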
# * hit, by the source's call; ? = inconclusive; / = no result given; & = joins results of further samples.
SMILES,Vif A3G,rRNA inh HTS,rRNA inh HTS OD600,rRNA inh HTS RFP,Bfl-1 A1 inh,AF4-AF9 inh,RanGTP-Imp inh,T cruzi inh,Beta cell apopt,Calb FLC
COc1ccc(NCc2nnc(-c3ccccc3)o2)cc1,/,10,17,2.2,-1.3,1.1,-1.0,25,/,-1
Cn1c(CNc2ccc(O)cc2)nc2ccccc21,/,3,7,11,-5.8,1.5,-2.5,-10,-2,7
COc1cscc1C(=O)O,9%,5,-1,1.7,0.5,-0.5,4.2,1,-4,-9
CCn1c(SCC(=O)NCCc2ccccc2)nnc1C(C)C,/,10,14,-0.1,0.1,-0.4,?,-1,1,26
CC(NC(=O)c1ccco1)C(=O)N1CCN(c2ccccc2)CC1 (stereo unspecified),/,-2,-3,6.2,-0.4,-2.8,-2.8,3,-2,8
CSc1ccccc1OCc1cc(C(=O)N2CCSCC2)no1,/,-13,-1,21,-2.6,0.6,5.9,-6,1,-2
COc1cc(OC)cc(C(=O)N[C@H](C(=O)OCC(=O)Nc2sccc2C#N)C(C)C)c1,-2%,-15,-10,3.7,1.4,-3.0,4.5,2,-5,10
CCSc1nc2n(n1)C(c1cccc(F)c1)C1=C(CCCC1=O)N2 (stereo unspecified),2%,/,/,/,-0.1,/,9.1,13,-3,19
C[C@H]1COC2=C1C(=O)C(=O)c1c2ccc2c1CCCC2(C)C,-1%,/,/,/,-0.1,/,-2.6,-8,-11,6
CCCc1cc(=O)[nH]c(SCC(=O)NC2CCCCCCC2)n1,-2%,/,/,/,-0.1,-1.4,/,/,-3,/
CC(C)CN1C(=O)NC(NC(=O)c2cccs2)(C(F)(F)F)C1=O (stereo unspecified),1%,/,/,/,0.9,/,-1.6,-7,-2,-12
CSCCC(N=Cc1c(O)n(-c2ccc(F)cc2)c(=O)[nH]c1=O)C(=O)O (stereo unspecified),-2%,/,/,/,/,/,2.8,-22,/,1
O=Cc1ccc(O)c(O)c1,0%,9,14,1.1,0.6,-4.3,3.1,-9,5,/
COc1ccc(NC(=O)C23CC4CC(C2)CC(n2cnc(Br)n2)(C4)C3)cc1OC,9%,-4,6,-4.9,-0.9,-35,2.1,6,2,-1
CCOCCCNC(=S)N(CCN(CC)CC)Cc1cc2cc3c(cc2[nH]c1=O)OCCO3,/,13,-1,2.4,0.5,0.5,?,-7,-9,0
CC1C/C(=N\NC(=S)NCc2ccccc2)CC(C)(C)C1 (stereo unspecified),-5%,/,/,/,1.0,/,0.9,30,-1,-23
CCOC(=O)CNc1c(-c2ccccc2)nc2ccc(Cl)cn12,0%,/,/,/,-2.3,/,0.4,1,-3,-55
Cc1c(NC(=O)c2cccc(NC(=O)Cc3ccccc3F)c2)c(=O)n(-c2ccccc2)n1C,-1%,5,14,-0.4,1.2,-6.7,/,/,-1,/
Cc1cc(C)cc(NC(=S)N2CCN(C(=O)c3ccco3)CC2)c1,/,8,17,-0.6,0.5,-1.1,0.9,-8,-5,-4
CC1=C(C#N)C(Nc2cc(C)ccn2)(C(F)(F)F)C(=O)N1 (stereo unspecified),3%,/,/,/,0.3,/,-0.5,-15,7,-4
CC1CC(=O)N(CC(=O)NCc2ccc3c(c2)OCO3)c2ccccc2S1 (stereo unspecified),24%,/,/,/,0.9,/,2.0,-3,0,-5
Cn1c(-c2ccsc2)c(-c2cccs2)c2cc(Br)ccc21,/,-7,-12,-1.0,1.6,6.0,/,/,-14,/
Cc1ccc(S(=O)(=O)/C(C#N)=C/c2c(N3CCCCC3)nc3ccccn3c2=O)cc1,/,-5,-14,3.2,0.3,7.6,2.3,2,-7,4
COc1ccc(Cl)cc1C(=O)NNC(=S)NC(=O)c1cc(-c2ccc(Cl)cc2)nc2ccccc12,10%,/,/,/,-0.1,/,-1.2,-13,7,2
N#CCC(CNc1ncc(C(F)(F)F)cc1Cl)OC(=O)c1cccc(C(F)(F)F)c1 (stereo unspecified),-3%,-4,-1,-2.8,-0.6,-35,-0.1,-10,-2,1
O=C(Cn1cncn1)NCc1cccc(C(F)(F)F)c1,-18%,16,17,-14,-0.4,-1.6,4.6,-14,5,-6
Cc1cc(Oc2nnnn2-c2ccccc2)ccc1Cl,-3%,/,/,/,0.3,/,1.4,-15,-8,13
O=S(=O)(c1ccccc1F)N1CCN(Cc2cc3c(cc2Br)OCCO3)CC1,-8%,-1,-9,7.4,-1.1,-11,/,/,10,/
Cc1cccc(Nc2nnc(SCc3cn4ccsc4n3)s2)c1,3%,/,/,/,-3.8,/,-12,16,9,-20
CCN1CCN(Cc2c(O)ccc3c(=O)c(-c4ccc(OC)c(OC)c4)c(C)oc23)CC1,2%,/,/,/,0.6,/,1.3,-13,-3,-1
C/C(=N\NC(=O)CC#N)c1cc2ccc(O)cc2oc1=O,?,15,2,2.8,-1.7,-1.6,1.9,-11,-3,11
Cn1c(=O)c2c(nc(SCC(=O)N3CCc4ccccc4C3)n2C)n(C)c1=O,6%,4,4,-3.2,-0.1,-9.4,-1.5,-14,-4,-2
CCOc1ccc(Cc2onc3c2C(=O)CCC3)cc1OCC,-2%,-9,1,0.2,-0.2,-0.1,-0.7,-9,/,14
CC(CCc1ccccc1)NC(=O)c1ccc(F)cc1 (stereo unspecified),/,7,3,-1.2,0.1,1.1,5.9,-3,-7,-2
O=C(NNC(=O)C1CCN(S(=O)(=O)c2cccc(Cl)c2)CC1)C1CC1,16%,3,3,-6.2,0.1,2.1,4.8,-1,-7,2
COCn1c(-c2ccccc2)nc2ccccc21,6%,/,/,/,-1.1,/,-0.7,-9,-5,-2

# Overlap with the part before: 2 compounds; new compounds follow.
SMILES,Vif A3G,rRNA inh HTS,rRNA inh HTS OD600,rRNA inh HTS RFP,Bfl-1 A1 inh,AF4-AF9 inh,RanGTP-Imp inh,T cruzi inh,Beta cell apopt,Calb FLC
O=C(NNC(=O)C1CCN(S(=O)(=O)c2cccc(Cl)c2)CC1)C1CC1,16%,3,3,-6.2,0.1,2.1,4.8,-1,-7,2
COCn1c(-c2ccccc2)nc2ccccc21,6%,/,/,/,-1.1,/,-0.7,-9,-5,-2
COC(=O)c1cccnc1-n1c(=O)c2cccnc2n(CC(=O)Nc2ccc(Br)cc2)c1=O,-6%,-5,-9,-2.3,1.0,5.1,1.2,4,-1,-2
CCOC(=O)N1CCN(C(=O)COC(=O)COc2c(C)cc(C)cc2C)CC1,3%,3,7,0.9,-0.1,-14,2.3,-5,-1,14
S=C1NC2=C(CCC/C2=C\c2ccc(Cl)cc2)C(c2ccc(Cl)cc2)N1 (stereo unspecified),/,-53,-79,-12,-1.3,-2.5,4.0,-5,1,29
COc1ccccc1CC(=O)Nc1ccc2c(c1)CCC2,3%,/,/,/,-0.5,/,0.8,-3,-5,5
COc1ccc(/C(N)=N/OC(=O)Cc2ccc(C)cc2)cc1OC,-5%,-25,-31,-5.8,0.7,-3.6,4.3,-13,-2,?
CCOC(=O)[C@@H]1[C@H]2COc3cc(OC)ccc3[C@H]2N2C(=O)N(c3cccc(Cl)c3)C(=O)[C@]12C,/,/,/,/,-1.1,/,3.4,21,2,15
COc1ccccc1-c1nc(C(=O)NCC2CCCO2)cc2c1[nH]c1ccccc12 (stereo unspecified),/,/,/,/,0.5,/,1.2,29,/,9
O=C(O)COc1ccc(/C=N/O)cc1Br,/,22,17,-0.9,0.5,-1.5,?,-10,-9,-6
CC(=O)OCCNc1cc(SC(C)C)c2nonc2c1[N+](=O)[O-],3%,-7,1,-5.7,-1.1,3.1,/,/,-1,-16
COc1ccc(CCNS(=O)(=O)c2ccc3c(c2)NC(=O)C(C)S3)cc1OC (stereo unspecified),-13%,-21,-16,-1.5,1.2,-0.3,0.9,4,-2,-2
O=C(NN1C(=O)C2C(c3ccccc3)C=CC(c3ccccc3)C2C1=O)c1ccncc1 (stereo unspecified),-8%,-16,-18,1.1,0.8,-2.0,1.8,-10,3,5
NC(=O)C[n+]1cccc(CNC(=O)c2ccc(OC(F)F)cc2)c1,11%,7,9,0.8,-0.8,-1.3,-0.5,-6,-9,8
COc1ccc(OC)c(CNn2c(-c3cccc(C)c3)nc3ccccc3c2=O)c1,-3%,/,/,/,-0.5,/,2.1,4,-1,8
O=C(CN(C(=O)Cn1nnc(-c2ccc(F)cc2)n1)C1CCCC1)NC1CCCC1,11%,/,/,/,0.1,/,-0.2,/,-7,-25
N#CCCN(Cc1cccnc1)C(=S)NC1CC2C=CC1C2 (stereo unspecified),-3%,-2,5,-3.8,-0.2,/,0.7,9,/,-21
Cc1ncsc1C(=O)N1CCCC(CNS(=O)(=O)c2cccs2)C1 (stereo unspecified),4%,9,4,-8.5,-1.2,0.1,3.3,-15,0,-10
Cc1noc(C)c1COc1ccc(C(=O)NNC(=O)c2ccccc2O)cc1,-1%,-1,3,-1.5,0.9,-0.5,1.5,-6,-1,/
CC1CCCN(c2ccc3nc4ccccc4c(=O)n3n2)C1 (stereo unspecified),?,-18*,-0.8*,-2.3*,-6.1,1.7,1.7,-6,9,19
CCC(C)(C)NC(=S)Nc1ccc(-c2nc3ccc(C)cc3s2)cc1,1%,/,/,/,-1.5,-2.6,-4.1,-17,8,-20
COc1ccc(NC(=O)CN(C)S(=O)(=O)c2ccc3c(c2)c(=O)n(C)c(=O)n3C)cc1,1%,5,7,-2.9,-0.1,-1.4,-1.9,-2,-2,-2
CCOC(=O)c1cnc(SCC(=O)Nc2ccc3c(c2)OCCO3)nc1N,7%,/,/,/,0.6,/,2.4,1,3,-1
Cn1c(CNC(=O)c2ccco2)nnc1SCC(=O)c1ccc(Br)cc1,/,0,16,-0.2,-0.2,0.4,2.1,-9,-4,0
CCN(CC)Cc1c(C(=O)N2CCc3ccccc3C2)nc2ccc(Cl)cn12,/,1,6,-0.3,-1.1,2.0,?,11,8,-8
CN(C)C(=O)c1nc2ccccc2s1,4%,7,3,-1.2,-0.4,-1.4,2.8,-13,-12,-9
C[C@H](CO)N1C[C@H](C)[C@@H](CN(C)S(=O)(=O)c2ccccc2)Oc2ccc(NC(=O)CCC(F)(F)F)cc2C1=O,/,-1&10,5&4,0.3&3.8,1.3,-1.2&0.1,/,/,-4,/
CCO/N=C/c1ccc(OC)c(Oc2nc(OC)cc(OC)n2)c1,-7%,5,8,0.4,0.0,-0.8,0.7,43,-3,22
Cc1ccc(NC(=O)CO/N=C(\N)c2ccccc2)cc1C,-12%,1,-16,0.4,-1.1,6.9,/,/,0,/
COc1ccc(NS(=O)(=O)c2ccc(C)c(C(=O)NCC(c3ccco3)N(C)C)c2)cc1 (stereo unspecified),30%,5,14,0.4,-0.3,2.0,-13,9,-4,-11

# Screening results (PubChem BioAssay)

# Not all compounds are listed; rates above refer to the full screens.
